High-throughput results from PubChem.
eIF4H inh – inhibitors of RNA binding by human eIF4H; eIF4H fluorescence polarization binding assay; inhibition, % at 35 µM; 290,000 compounds, 0.94% hits; AID 2012;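 active means 50% or more with normal probe brightness, or confirmed in later tests; inconclusive means above 50% with abnormal brightness, or retests that disagree; inactive means below 50% or failed in later tests; about a fifth of its hits are not listed in these tables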;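 further: calls also rest on retests at 20 µM and on dose response follow-up; 0% = protein and probe with vehicle and 100% = probe without protein; strong numbers were not always called active; many hits fall short of the cut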
CSC inhib – cancer stem cell inhibition | inhibition, % at 7.5 µM | cancer stem cell-like cells viability, luminescence | 300,000 compounds, 1.1% hits;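 active means mean at 75% or more and at least half the replicates too; inconclusive means mean and replicates disagree; tested in HMLE shEcad cells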;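 further: 0% = median of negative and 100% = median of positive control wells; the first replicate is given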
HIV Env fusion – blocks HIV Env-driven cell-cell fusion; HeLa-JRFL Env/CEM21 cell fusion, luciferase; 360,000 compounds, 1.1% hits; inhibition, % at 12.3 µM; AID 651610;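 active means mean replicate inhibition score of at least 50 and every replicate individually at or above 50; inconclusive means only one of the two criteria met; inactive means mean below 50 and not all replicates reaching 50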;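 further: 0% = plate neutral controls and 100% = maraviroc near 300 nM; one replicate is shown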
PABP polyA inh – blocks human PABP binding to poly(A) RNA. P11940. fluorescence polarization. inhibition, % at 35 µM. 290,000 compounds, 1% hits. AID 2014;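 active means 50% or more with normal probe brightness, or confirmed in later tests; inconclusive means above 50% with abnormal brightness, or retests that disagree; inactive means below 50% or failed in later tests; about a fifth of its hits are not listed in these tables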;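 further: calls also rest on retests at 20 µM and on dose response follow-up; controls were probe without protein and protein plus probe with vehicle; some compounds called inactive have numbers as strong as hits; many hits fall short of the cut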
Target sequence (P11940 whole entry, looked up): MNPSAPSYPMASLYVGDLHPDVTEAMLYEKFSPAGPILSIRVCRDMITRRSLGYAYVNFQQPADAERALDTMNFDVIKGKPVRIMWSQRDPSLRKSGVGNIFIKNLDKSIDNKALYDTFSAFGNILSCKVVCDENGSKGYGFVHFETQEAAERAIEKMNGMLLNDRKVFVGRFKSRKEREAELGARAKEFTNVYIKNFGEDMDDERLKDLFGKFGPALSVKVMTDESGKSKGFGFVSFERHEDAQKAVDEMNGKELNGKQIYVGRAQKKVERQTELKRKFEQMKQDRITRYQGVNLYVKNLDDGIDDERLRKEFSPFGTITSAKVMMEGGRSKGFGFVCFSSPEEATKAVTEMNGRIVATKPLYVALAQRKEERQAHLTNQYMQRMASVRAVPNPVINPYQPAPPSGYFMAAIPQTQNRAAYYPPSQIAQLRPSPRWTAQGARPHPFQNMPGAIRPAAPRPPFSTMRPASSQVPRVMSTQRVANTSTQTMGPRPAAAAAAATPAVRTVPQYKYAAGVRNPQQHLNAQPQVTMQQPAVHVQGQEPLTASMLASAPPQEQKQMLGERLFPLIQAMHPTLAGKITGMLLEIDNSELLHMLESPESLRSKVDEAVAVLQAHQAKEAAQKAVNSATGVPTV
Yeast UUG start – modulators of start codon recognition fidelity in yeast; 350,000 compounds, 0.13% hits; S. cerevisiae UUG-firefly luciferase reporter, luminescence/redox ratio; activity score, % at 18.7 µM;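 active means replicate mean at a twofold rise or more, about +100% in these data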;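 further: firefly luciferase made from a UUG start codon reports start codon fidelity; reporter light over untreated wells divided by growth signal over untreated wells; some hits fall short of that in this replicate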
Rce1 inh – blocks yeast Ras-converting enzyme; 290,000 compounds, 0.27% hits; calls only; Q03530; AID 2563; yeast membranes, quenched prenylated peptide cleavage fluorescence;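 active means fall in fluorescence gain of 50% or more versus controls, with final raw signal at or below 3038400; inconclusive means same 50% fall but final raw signal above 3038400; inactive means fall in fluorescence gain under 50%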;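 further: plate controls were neutral control wells for no effect and wells lacking membranes for full effect; tested at 10 µM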
Target sequence (Q03530 whole entry, looked up): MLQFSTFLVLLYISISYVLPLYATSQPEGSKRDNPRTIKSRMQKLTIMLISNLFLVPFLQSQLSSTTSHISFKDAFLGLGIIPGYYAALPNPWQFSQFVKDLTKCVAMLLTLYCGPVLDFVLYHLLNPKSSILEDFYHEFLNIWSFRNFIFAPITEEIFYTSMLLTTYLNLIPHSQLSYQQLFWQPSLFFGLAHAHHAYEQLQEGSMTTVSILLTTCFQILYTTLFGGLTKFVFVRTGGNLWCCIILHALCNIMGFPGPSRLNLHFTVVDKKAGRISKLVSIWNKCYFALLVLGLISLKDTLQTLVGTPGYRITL
MT1-MMP act inh – MT1-MMP (human) activation inhibition. HT1080 RFP-PRO-GFP cells, GFP/RFP ratio fluorescence, overnight; percent of plate control window, DMSO zero. GFP/RFP ratio change, % at 20 µM. 360,000 compounds, 0.061% hits. AID 651647;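 active means GFP/RFP ratio change of at least 30% with cell ATP level not reduced by more than half and red fluorescence within 50% of control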; further: strong numbers were not always called active
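Assay system: HT1080 RFP-PRO-GFP cells. Benchmarks: DMSO vehicle wells and RFP-L50D-GFP reporter cell wells. Times: overnight cell settling, then overnight compound exposure, 37 °C, 5% CO2. Compound: 20 µM single dose, 1% DMSO. Read-out basis: GFP/RFP fluorescence ratio.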
MT1-MMP act inh RFP – recorded beside MT1-MMP act inh, whose call it bears; RFP signal change, %; measured here: RFP expression control read;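 0 = vehicle wells; hits needed this value within 50% of zero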
The depositor's hits bear a star; i = inactive; ? = inconclusive; nt = not tested or not shown. Not all compounds are listed; the hit share may differ from the screen's.

SMILES	eIF4H inh	CSC inhib	HIV Env fusion	PABP polyA inh	Yeast UUG start	Rce1 inh	MT1-MMP act inh	MT1-MMP act inh RFP
Cc1cc(=O)[nH]c(SCC(=O)NCCOc2ccccc2)n1	-8	-16	nt	-2	0	i	4	-1
CCOc1cc(C)ccc1OCc1nnc(SCC(=O)c2cccc([N+](=O)[O-])c2)n1C	-2	-5	nt	1	-17	i	6	-2
CCOC(=O)C1=C(C)n2c(s/c(=C/c3cccc([N+](=O)[O-])c3)c2=O)=NC1c1ccc(O)c(OC)c1 (configuration not stated)	-4	-5	nt	-10	-24	i	1	1
O=C(CSc1nnc(Cn2nnc3ccccc32)o1)N(Cc1ccc(Cl)cc1)c1ccccc1	2	16	nt	1	-4	i	-3	-19
COC(=O)Cc1cccc2c(=O)c3ccccc3oc12	-8	7	0	-14	-11	i	-2	-1
CCCCc1ccc(NC(=O)CSc2nnc(CNC(=O)c3ccco3)o2)cc1	-10	-8	-1	-12	9	i	1	0
COc1ccc(S(=O)(=O)N2CCC(C(=O)NCCCn3ccnc3)CC2)cc1C	-11	-5	1	-2	-20	i	-1	0
COc1ccc(S(=O)(=O)N(C)CC(=O)N2CCCCC2)cc1Cl	-4	nt	nt	0	1	i	-2	3
O=C(O)c1sccc1OCc1ccccc1	-6	7	4	1	nt	i	1	0
Cc1ccc(-n2nnnc2SC(C)C(=O)Nc2ccccc2-c2ccccc2)cc1 (configuration not stated)	7	nt	6	19	nt	i	-3	-2
CNC(=O)c1ccccc1NC(=O)c1ccco1	-6	1	nt	7	-15	i	8	4
COc1ccc(C(=O)C(C)OC(=O)c2sc(C)nc2C)cc1 (configuration not stated)	nt	12	-32	nt	-1	nt	1	-1
COc1cccc(-n2nc(C#N)c(Cl)cc2=O)c1	-3	nt	-75	15	nt	i	15	11
CCCSc1nsc(NC(=O)CC)n1	6	-9	-23	5	nt	i	3	-4
N#CCN1CCN(CC(=O)c2ccc(Br)cc2)CC1	-2	-6	1	3	nt	i	-2	1
CN1CCN(c2nnc(-c3ccc(F)cc3)c3ccccc23)CC1	-10	-2	17	2	-8	i	1	3
CCOC(=O)c1sc(NC(=O)C(CC)Sc2nccn2C)nc1C (configuration not stated)	-3	-4	nt	-6	26	i	-6	-3
CCCc1nc(SCC(=O)N2c3ccccc3CC2C)c2c(C)c(C)sc2n1 (configuration not stated)	-4	19	nt	-15	-8	i	-5	-8
O=C(NCCC1=CCCCC1)c1ccc2c(=O)n3c(nc2c1)CCCCC3	-4	43	4	23	3	i	2	-4
CCN(CC)S(=O)(=O)c1ccc2oc(C(=O)NCc3ccc(F)cc3)c(C)c2c1	-4	10	?	-2	-8	nt	-9	-19
CS(=O)(=O)c1ccc2nc(NC(=O)c3ccco3)sc2c1	2	7	-43	-21	-26	i	-1	2
Cc1ccc(/C=C/C(=O)O)cc1S(=O)(=O)N1CCc2ccccc2C1	4	-7	-14	-4	nt	i	-3	0
CCNC(=O)C/C(C)=N/NC(=O)C(=O)Nc1ccc(CC)cc1	7	-10	-7	8	nt	i	0	3
Cn1c(C(=O)N2CCC(C(N)=O)CC2)cc2c(=O)n(C)c3ccccc3c21	-7	-25	0	-3	9	i	7	2
CCOc1ccc(-c2cccc(NC(=O)c3ccco3)c2)nn1	nt	nt	-22	nt	-12	i	2	3
O=C(CSc1ncnc2c1oc1ccccc12)NC1CCCC1	-5	-3	nt	7	-8	i	0	-2
O=c1[nH]c(CSc2ncnc3sc(-c4ccccc4)cc23)nc2ccccc12	15	23	24	4	-19	i	0	4
O=C(COC(=O)c1cc(=O)[nH]c2ccccc12)NC1CCCCCCC1	-3	-2	3	8	nt	i	1	-1
COc1ccc(CNC(=O)c2[nH]c(C(F)(F)F)nc2-c2ccccc2)cc1	nt	nt	-54	nt	-4	nt	-6	-5
CC(C)N1CCCC(C)(C(=O)Nc2nc3ccccc3n2C)C1 (configuration not stated)	nt	nt	5	nt	0	nt	-6	3
COc1cc(/C=C2\SC(=S)N(CC(=O)NC(C)(C)C)C2=O)cc(OC)c1OC	-5	nt	25	11	nt	i	-4	-6
CC(=O)OCC1=C(C(=O)O)N2C(=O)C(NC(=O)Cn3nc(C(F)F)c(Cl)c3C)C2SC1 (configuration not stated)	27	-5	-21	9	-24	i	-7	-1
O=C(NCc1ccccc1)C1(CC2CC(c3ccccc3)=NO2)CCNCC1 (configuration not stated)	nt	19	24	nt	2	nt	1	1
COc1ccc(N2CCN(C(=O)c3ccc4c(c3)OCO4)CC2)cc1	2	-5	nt	3	nt	i	1	0
COc1ccc(OC)c(NC(=O)CSc2ccc3nnc(-c4cccnc4)n3n2)c1	0	-9	8	-2	-15	i	6	-2
COC(=O)c1ccc(/C=N/NC(=O)CCSc2nc3ccccc3s2)cc1	-3	-11	-16	-10	nt	i	nt	nt
COc1ccc(CSCCc2n[nH]c(=S)n2-c2ccccc2)cc1	2	-6	-4	-2	nt	i	-1	-6
O=c1c(C=Nc2cccc(C(F)(F)F)c2)c[nH]n1-c1cccc(Cl)n1	-2	-6	-79	6	2	nt	1	3
Oc1ccc(/C=N/n2c(-c3ccco3)csc2=Nc2cccnc2)c(O)c1	6	72	9	-3	-20	i	-47	-14
Cc1cccnc1NC(=O)c1ccc(NS(=O)(=O)c2ccc3[nH]c(=O)[nH]c3c2)cc1	nt	4	0	nt	-13	i	-3	4
CCOP(=O)(c1c(F)c(F)c(F)c(F)c1F)C(O)c1ccccc1 (configuration not stated)	1	-7	nt	1	-15	i	3	5
CCOCCCNS(=O)(=O)c1ccc(NC(=O)c2ccccc2)cc1	2	15	nt	-8	0	i	-7	-9
CCc1c(C(=O)N/N=C/c2ccc(OCc3ccc(F)cc3)c(OC)c2)nnn1-c1nonc1N	-9	nt	-5	34	-11	i	-2	-17
O=C(c1ccccc1)c1cc(-c2ccccn2)c(N2CCOCC2)s1	-16	0	-14	4	0	i	0	4
COc1ccc(-c2c(-c3ccsc3)oc(=O)c3cc(OC)c(OC)cc23)cc1	nt	18	-28	nt	-9	nt	-2	-3
CCCNC(=S)Nc1ccccc1	2	-6	6	3	-11	i	-1	-2
CC(=O)Nc1ccc(S(=O)(=O)N2CCN(Cc3cccc([N+](=O)[O-])c3)CC2)cc1	12	-6	8	6	nt	i	4	2
CCNC(=O)CCSc1nnc(-c2ccncc2)o1	-9	-10	3	-7	nt	i	1	3
O=C(CN1C(=O)CSc2ccc(S(=O)(=O)N3CCOCC3)cc21)NCCc1ccccc1	nt	nt	-1	nt	-2	nt	3	4
CCOc1ccccc1OCCCC(=O)NNC(=O)c1ccc(F)cc1	nt	nt	-2	nt	-2	nt	2	5
O=C(NCCN1CCOCC1)C(=O)NCC1OCCN1S(=O)(=O)c1ccccc1 (configuration not stated)	-12	-7	4	16	-5	i	-1	3
CCOc1ccc(OCc2cccc(C(=O)N3CCCC3)c2)cc1	-8	-12	nt	-8	-19	i	-1	0
Cc1c(Cl)c([N+](=O)[O-])nn1CC(=O)NCc1cccnc1	-8	-4	12	-13	nt	i	0	1
CN(/C(=N\S(=O)(=O)c1ccccc1)C(F)(F)F)c1ccccc1	-6	-7	nt	7	-41	i	-1	5
O=C(Nc1nccs1)C1(c2ccc(Cl)cc2)CC1	2	-3	-32	1	nt	nt	-1	-3
COc1ccc(Cl)cc1C1=NOC2(CCC2)C(=O)N1Cc1cccc(C#N)c1	nt	nt	52	nt	-5	nt	1	-3
O=C(CCNC(=O)c1ccc(Br)cc1)Nc1cccc(S(=O)(=O)N2CCCC2)c1	nt	-7	2	nt	-10	i	2	-4
Cc1ccc(-n2nc(C(=O)c3ccccc3)n3c(=O)cc(-c4ccccc4)nc23)cc1	-17	11	nt	-15	-9	i	0	6
CSc1nsc(SC)c1CO	-9	-18	-1	9	nt	i	-2	-1
Cn1c(=O)[nH]c(=O)c2c1nc(N1CCN(C(=O)c3ccco3)CC1)n2CCCSc1ncccn1	nt	nt	5	nt	-4	nt	-1	4
(further entries)
SMILES	eIF4H inh	CSC inhib	HIV Env fusion	PABP polyA inh	Yeast UUG start	Rce1 inh	MT1-MMP act inh	MT1-MMP act inh RFP
O=C1C[C@@H]2c3c(cccc3CN1Cc1ccc(Cl)cc1)C[C@@H](O)[C@H]2O	nt	nt	5	nt	1	nt	0	2
Cc1cn2c(-c3cccnc3)nnc2s1	1	-3	-95	3	-13	i	0	2
CCCCNS(=O)(=O)c1ccc2nc(-c3cccnc3)cc(C(=O)NCCOC)c2c1	8	-8	-1	-1	nt	i	-1	2
CCN(CC)C(=O)C1CCN(S(=O)(=O)c2ccc(-n3cnnn3)cc2)CC1	-18	3	4	3	nt	i	-3	-4
Cc1ccc(Cn2c(SCC(=O)Nc3cc(C)on3)nc3ccccc3c2=O)cc1	-7	-3	nt	3	-9	i	2	-3
O=c1c2c(-c3cccs3)csc2ncn1-n1cccc1	2	-3	nt	-3	nt	i	-7	1
Cc1nc(-c2cccc(NC(=O)c3cccs3)c2)cs1	1	8	-40	3	-10	i	14	-4
O=C(NCc1ccco1)C1CCN(S(=O)(=O)N2CCOCC2)CC1	-4	-14	15	2	-4	i	5	0
CCC1COCCS(=O)(=O)N1Cc1ccccc1F (configuration not stated)	-5	7	nt	9	-4	i	-1	1
O=C1C=C(N(CCO)Cc2ccccc2)c2ccccc2C1=O	0	nt	nt	-4	-61	i	4	3
Cc1ccc(S(=O)(=O)NNC(=O)/C=C/c2cccc(F)c2)cc1	-9	10	-7	-6	-4	i	-5	-9
COc1ccc(OC)c(NC(=O)CSc2nc(-c3ccccc3)cc(=O)[nH]2)c1	8	-3	-5	14	-28	i	-1	1
CC1CCCCN1C(=O)CSc1nnc(-c2c[nH]c3ccccc23)o1 (configuration not stated)	-4	2	nt	7	4	i	-4	-3
COc1ccc(OC)c(NC(=O)CSc2nnnn2C2CCCC2)c1	-14	nt	2	8	-12	i	2	3
CCOc1ccccc1N1CCN(C(=O)Nc2ccc(Cl)c(Cl)c2)CC1	-1	11	nt	8	nt	i	nt	nt
CC1CCN(c2nc3ccccn3c(=O)c2C=O)CC1	-3	-6	-5	-4	nt	i	0	3
Cc1ccc(C)c(CN2C(=O)NC3(CCCCCC3)C2=O)c1	-4	-6	-1	10	nt	i	0	-3
CCOc1ccc2nc(NC(=O)CSc3ccccc3)sc2c1	-2	-4	nt	1	nt	i	-2	-2
CC/C(C)=N/NS(=O)(=O)c1ccc(C)c([N+](=O)[O-])c1	-2	-8	-5	-10	-22	i	3	-1
CCCNC(=O)c1ccc(N2CCC3(CC2)CC(c2ccccc2)=NO3)c([N+](=O)[O-])c1	-1	8	-3	-9	-8	i	9	-11
COCCNC(=O)CN(C(=O)Cn1nnc2ccccc21)c1cc(C)cc(C)c1	7	6	-4	7	nt	i	2	7
CCNC(=O)CC1SC(=Nc2cccc3ccccc23)N(C)C1=O (configuration not stated)	2	-8	-17	-2	-5	nt	-3	1
CCOC1=C2[C@H](c3ccccc3)N(S(=O)(=O)c3ccc(C)cc3)[C@H](C(C)C)[C@H]2n2c(=O)n(-c3ccccc3)c(=O)n2C1	nt	nt	7	nt	-1	nt	-20	-21
CC(N)c1csc(Nc2ccc(S(C)(=O)=O)cc2)n1 (configuration not stated)	nt	nt	-17	nt	0	nt	-1	2
CC(C)(CNS(=O)(=O)c1ccc(Cl)cc1)N1CCCCC1	-5	-9	nt	-16	-7	i	0	1
